Compound activity deposited in PubChem BioAssay by National Center for Advancing Translational Sciences (NCATS).
TRPV1 PAM = human TRPV1 potentiation. Q8NER1. TRPV1-expressing cells, Fluo-8 calcium influx, capsaicin EC20 potentiation; host cell line not named in the record; control for the full effect not named in the record. potentiation, % at 8.33 µM. 320,000 compounds, 0.02% hits. AID 540277; active means potentiation above 80%; inconclusive means 30% to 80%; inactive means below 30%; also: 0% is about no effect
Target sequence (Q8NER1 whole entry, looked up): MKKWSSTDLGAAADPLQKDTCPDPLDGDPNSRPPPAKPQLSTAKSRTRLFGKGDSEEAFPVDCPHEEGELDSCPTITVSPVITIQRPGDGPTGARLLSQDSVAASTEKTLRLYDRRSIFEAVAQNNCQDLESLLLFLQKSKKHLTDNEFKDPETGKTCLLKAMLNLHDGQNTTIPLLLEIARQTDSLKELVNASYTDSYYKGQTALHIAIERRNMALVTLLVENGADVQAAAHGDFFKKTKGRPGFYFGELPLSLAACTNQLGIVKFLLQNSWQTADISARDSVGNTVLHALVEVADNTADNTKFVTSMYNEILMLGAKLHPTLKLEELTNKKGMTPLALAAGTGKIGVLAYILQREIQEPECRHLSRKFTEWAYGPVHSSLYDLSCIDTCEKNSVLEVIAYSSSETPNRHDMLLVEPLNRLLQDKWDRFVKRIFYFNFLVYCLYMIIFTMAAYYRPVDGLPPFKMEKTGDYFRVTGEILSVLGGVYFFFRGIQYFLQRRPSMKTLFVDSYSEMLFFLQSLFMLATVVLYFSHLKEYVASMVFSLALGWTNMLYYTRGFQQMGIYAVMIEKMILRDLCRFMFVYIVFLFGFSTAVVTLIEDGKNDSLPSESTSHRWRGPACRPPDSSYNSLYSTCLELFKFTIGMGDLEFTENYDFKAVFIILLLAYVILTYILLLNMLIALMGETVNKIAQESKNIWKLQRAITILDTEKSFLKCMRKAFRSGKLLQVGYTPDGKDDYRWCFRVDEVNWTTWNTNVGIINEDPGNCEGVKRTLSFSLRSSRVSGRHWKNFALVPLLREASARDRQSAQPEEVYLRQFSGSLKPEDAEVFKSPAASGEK
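TRPV1-expressing cells were cultured overnight at 35.5C and loaded with Fluo-8 calcium dye for 40 to 90 min at room temperature. After a 10 s baseline, compound was added and calcium influx was read kinetically for 3 min (ex 480/em 520 nm).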
D2 agonist = human D2 receptor agonism in beta-arrestin assay | P14416 | DiscoveRx PathHunter D2 beta-arrestin, luminescence, 90 min; 100% = 57 uM dopamine signal | activation, % (no concentration beside the values) | 360,000 compounds, 0.084% hits | AID 624465; in the data active = activation above about 40%; inconclusive = about 15% to 40%; inactive = below about 15%; also: compound concentration not given in the record; the text of the record calls up to 30% inactive
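DiscoveRx PathHunter D2 beta-arrestin cells (2,100/well) attached overnight, then compound-stimulated 90 min at 37 C in HBSS/10 mM HEPES/0.1% Tween-20 buffer; beta-galactosidase complementation read by luminescence after 1 h at ambient temperature. Dopamine 57 uM final (EC100) as control.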
PINK1 expr mod = changes PINK1 expression; Potency, µM (series often up to 76.6 µM), for inactives: at the top dose activation (PINK1 increase), hits mostly activators; PINK1 immunofluorescence, high-content cytometry, 24 h; 410,000 compounds, 0.2% hits; active = well fitted activation curve with a large enough effect; inconclusive = small, poorly fitted or top-dose-only effect; inactive = flat fitted curve, though single readings scatter; cell line not stated here;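 also: potency is read from the fitted curve at half-maximal effect; % of control where 0% means no effect; nearly all actives have a fitted effect of over 65% in size; a mitochondrial uncoupler was the plate control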
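Stable cell line treated 24 h with compounds at 5 concentrations (CCCP controls), then fixed and immunostained for PINK1 plus nuclear and cell stains; PINK1 immunofluorescence quantified by laser-scanning microplate cytometry.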
Sfp inh = Sfp phosphopantetheinyl transferase inhibition. Q9F4F7. Biochemical Sfp PPTase activity, qHTS. Potency, µM, for inactives: max response, negative = inhibition, hits mostly inhibitors. 310,000 compounds, 3.5% hits. AID 1490; active = well fitted inhibition curve with a large enough effect; inconclusive = small, poorly fitted or top-dose-only effect, or another doubt; inactive = no such curve, though single readings can be large or run the other way;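 also: the enzyme is Sfp with the accession as filed and its product quenches rhodamine fluorescence; potency is read from the fitted curve at half-maximal effect; 0% = enzyme reaction without inhibitor and -100% = no enzyme wells; top concentration of the series not given in the record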
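Compounds were incubated with enzyme (final 15 nM) for 15 min at room temperature before substrate addition started the reaction. Fluorescence at 525 nm excitation, 598 nm emission was recorded immediately and after 30 minutes.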
D2 potentiator = human D2 receptor positive allosteric modulation; potentiation, % (no concentration beside the values); AID 624464; DiscoveRx D2 beta-arrestin cells, luminescence, 90 min; 100% = 57 uM dopamine signal; 360,000 compounds, 0.23% hits; P14416; active = potentiation of 50% or more; inconclusive = 30% to 50%; inactive = 30% or less;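 also: compound concentration not given in the record; tested on top of an EC20 dose of dopamine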
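PathHunter D2 cells, attached overnight at 37 deg C, received compound in DMSO plus dopamine at EC20 (50 nM final) for 90 min at 37 deg C. Beta-arrestin recruitment was read as luminescence after 1 h with detection reagent at ambient temperature.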
CtBP-E1A inh = blocks the CtBP interaction with E1A | AlphaScreen GST-E1A/His-CtBP binding, 1536-well; hits give low values; control for the full effect not named in the record | activity change, % (test concentration not listed) | 340,000 compounds, 0.49% hits; in the data active means activity change below about -65%; inconclusive means about -30% to -65%; inactive means above about -30%; also: % is scaled to controls: 0 for no effect and ±100 for the full control effect
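GST-E1A and His-tagged CtBP (125 nM each as 5X stock) were preincubated with pin-transferred compound for 2 h at 37 °C in the dark, then glutathione donor and nickel acceptor beads were added for 1 h before AlphaScreen reading.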
Six1-Eya2 blk = blocks human Six1 binding to Eya2 | activity change, % (no concentration beside the values) | Q15475+O00167 | AlphaScreen GST-Six1/His-Eya2 binding, biochemical; hits give low values; control for the full effect not named in the record | 360,000 compounds, 0.56% hits; in the data active = activity change below about -65%; inconclusive = about -30% to -65%; inactive = above about -30%; also: % is scaled to controls: 0 for no effect and ±100 for the full control effect
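AlphaScreen luminescence read after one hour at 37 °C in darkness. Pin-transferred compounds met GST-Six1 and His-Eya2 protein (5X stock 250 nM/500 nM) plus glutathione donor and Ni-chelate acceptor beads (5X, 50 ug/mL).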
* = called active by the depositor; ? = inconclusive; . = not tested or not shown; & = joins results of further samples; [ ] = dose if it differs, or a comment.

SMILES | TRPV1 PAM | D2 agonist | PINK1 expr mod | Sfp inh | D2 potentiator | CtBP-E1A inh | Six1-Eya2 blk
Cc1ccc(O)c(/C=N/NC(=O)COc2ccc3c(C)cc(=O)oc3c2)c1 | 21 | -4.1 | -1.7% | -17% | -19 | -7 | -3
Cc1cccc(NC(=O)CO/N=C/c2ccc3c(c2)OCO3)c1 | -11 | 0.8 | 4.5% | -12% | -8 | 10 | 6
Cc1cccc2cc(CN(Cc3cccnc3)C(=O)c3ccccc3F)c(Cl)nc12 | -22 | 3.5 | . | 1% | ? | -2 | -4
CCn1c(SCC(=O)Nc2ccc(NC(=O)c3cccs3)cc2)nnc1-c1cccnc1 | 24 | -1.8 | -2.1% | 21% | -14 | -9 | -12
CC(C)(C)N(Cc1ccc2c(c1)OCO2)C(=O)/C=C\S(=O)c1ccccc1 (stereo not given) | . | -3.7 | -1.3% | . | -15 | -3 | 4
CCCOc1ccc(C2NC(=O)NC2=O)cc1 (stereo not given) | -11 | -2.3 | 1.5% | 11% | -9 | 0 | -1
CCN(CC)C(=O)C(Sc1nnnn1-c1ccc(O)cc1)c1ccccc1 (stereo not given) | -18 | 0.4 | 0.3% | 4% | 1 | 2 | -11
COc1ccc(CCNC(=O)CCOc2cc(C)ccc2C)cc1OC | -18 | -0.7 | 2.0% | 13% | -7 | 0 | 0
COc1ccc(NC(=O)COc2ccc(/C=N/n3c(C)nnc3C)cc2OC)cc1 | 8 | -3.7 | 0.3% | 8% | -6 | -13 | -7
CSc1ccccc1C(=O)Nc1ccc(S(=O)(=O)NC2=NCCCCC2)cc1 | 3 | -4.2 | 1.3% | . | -11 | . | 3
COC(=O)[C@H]1C[C@@]2(O)CN(S(=O)(=O)c3ccc(C)cc3)C[C@@]2(OC(=O)NCc2ccc(OC)c(OC)c2)C[C@H]1C(=O)OC | . | -7.5 | 0.8% | . | 2 | 1 | 2
O=c1cnnc(N/N=C/c2ccc3c(c2)OCO3)[nH]1 | -5 | -4.8 | 0.8% | ? | -6 | -14 | -11
O=S(=O)(Nc1ccc(OC(F)F)cc1)c1ccc(-c2ccon2)s1 | 14 | -0.9 | 0.8% | 11% | -5 | -1 | 8
COC(=O)c1ccc(Cn2nnc3c(=O)[nH]c(C4CCCN(S(=O)(=O)c5ccccc5)C4)nc32)cc1 (stereo not given) | 3 | 0.5 | 3.3%&-0.7% | -14% | -3 | 4 | 4
COc1ccc(S(=O)(=O)NC2CC(=O)N(c3ccc(C)c(C)c3)C2)cc1 (stereo not given) | -17 | 1.5 | 0.0% | . | 1 | 7 | 3
O=C(O)c1ccccc1C1c2ccccc2Oc2ccccc21 | . | -2.5 | 2.9% | . | -2 | -3 | 1
Cc1cccc(NC(=O)c2ccc(OCC3CCCO3)cc2)c1C (stereo not given) | -5 | 3.2 | 1.6% | -1% | 7 | 9 | 5
CN(Cc1ccccc1NS(=O)(=O)c1ccc(Cl)cc1)C1CCCCC1 | -13 | -7.1 | -0.6% | 7% | -17 | -3 | 0
C/C(N)=C(/C#N)C(=O)COC(=O)c1ccc(NC(N)=O)cc1 | 2 | 4.8 | 1.6% | 24% | -11 | -15 | 4
N#Cc1ccc(S(=O)(=O)N2CCCCC2c2cc(C(=O)N3CCOCC3)no2)cc1 (stereo not given) | . | 10 | 0.0% | . | -3 | -5 | 1
O=C(NC1CCCCC1)C(c1ccc(Cl)cc1)N1CCC2(CC1)OCCO2 (stereo not given) | -8 | -1.8 | -0.3% | 3% | -4 | -2 | 10
O=C(CCCC(=O)N(CC(=O)NC1CCCCC1)Cc1ccco1)Nc1ccccn1 | 0 | -2.2 | -1.2% | 13% | -5 | 9 | 6
Cc1ccc2nc(/N=C(\N)NC(=O)NC3CCCCC3)nc(C)c2c1 | -10 | 0.3 | ? | 45µM* | -13 | -8 | -1
O=C(CSc1nnnn1Cc1ccccc1)Nc1ccc2c(c1)OCCO2 | 2 | -2.5 | -2.7% | -11% | -7 | -1 | -2

Three compounds from above, sorted by heavy-atom count, smallest number first.
SMILES | TRPV1 PAM | D2 agonist | PINK1 expr mod | Sfp inh | D2 potentiator | CtBP-E1A inh | Six1-Eya2 blk
CCCOc1ccc(C2NC(=O)NC2=O)cc1 (stereo not given) | -11 | -2.3 | 1.5% | 11% | -9 | 0 | -1
C/C(N)=C(/C#N)C(=O)COC(=O)c1ccc(NC(N)=O)cc1 | 2 | 4.8 | 1.6% | 24% | -11 | -15 | 4
CCn1c(SCC(=O)Nc2ccc(NC(=O)c3cccs3)cc2)nnc1-c1cccnc1 | 24 | -1.8 | -2.1% | 21% | -14 | -9 | -12

The list continues.
SMILES | TRPV1 PAM | D2 agonist | PINK1 expr mod | Sfp inh | D2 potentiator | CtBP-E1A inh | Six1-Eya2 blk
CC(=O)/C(=N\Nc1ccc(Cl)cc1)Sc1nnc(-c2ccccc2)n1-c1ccccc1 | -7 | 3.3 | 3.3% | -13% | -27 | 10 | -1
NS(=O)(=O)c1ccc(N/N=C/c2ccccn2)c([N+](=O)[O-])c1 | 1 | 7.7 | -0.8% | 15% | -9 | . | 13
CCOC(=O)C1=C(CC)OC(N)=C(C#N)C1c1cc(OC)ccc1OC (stereo not given) | -8 | -4.3 | -3.3% | 10% | -8 | 7 | -1
CCOc1ccc(NC(=O)CN(C)C(=O)c2ccccc2OCc2cccc(C)c2)cc1OCC | 17 | 0.0 | -0.5% | . | -17 | -8 | -20
CCC(=O)Nc1ccc(N2CCC(C)CC2)cc1 | -5 | -5.3 | -1.0% | 3% | -13 | 1 | -5
COc1cccc(/C=N/NC(=O)c2ccc(OCc3cccc(Br)c3)cc2)c1 | 8 | 0.3 | -0.5% | 17% | 13 | 0 | -2
Cc1ccc(Cn2c(=S)[nH]c3ccc(N4CCOCC4)cc3c2=O)o1 | -2 | -0.4 | 6.1% | 2.5µM* | -15 | 2 | -20
Cc1nc(C(=O)Nc2ccc(Cl)cc2Cl)nn1-c1cc(OC(C)C)c(Cl)cc1Cl | . | -1.4 | 3.9% | 2% | 0 | 5 | 3
CCOC(=O)C1(Cc2ccccc2)CCN(CC2CC=CCC2)CC1 (stereo not given) | -14 | -1.8 | 6.2% | 8% | -16 | -13 | 0
O=C1c2cc(Cl)ccc2OC2(CCNCC2)C12CC(c1ccccc1)=NO2 (stereo not given) | ? | 4.0 | -1.2% | 2% | 8 | -2 | 4
NC(=O)C1(N2CCCCC2)CCN(c2nc(-c3ccccc3)cs2)CC1 | 9 | -2.3 | 6.0% | -2% | -19 | 6 | -9
COc1ccc(OCc2nnc(SCC(=O)N3c4ccccc4Sc4ccc(Cl)cc43)o2)cc1 | 12 | 0.6 | 5.1% | 21% | -2 | 4 | -1
Nc1nc2c(ncn2[C@@H]2O[C@H](CNC(=O)[C@H](N)Cc3cncn3COCc3ccccc3)[C@@H](O)[C@H]2O)c(=O)[nH]1 | . | 2.5 | -0.2% | . | 1 | 4 | -1
CCC1CCCCN1CC(=O)c1c(C)[nH]c2ccccc12 (stereo not given) | 1 | 0.0 | 0.0% | 7% | -13 | -5 | 4
CC(C)c1ccc(N2CC(C)(C)C2=O)cc1 | -20 | 1.8 | 1.8% | 18% | -6 | . | 4
O=C(Nc1ccncc1)C1CCN(S(=O)(=O)c2ccccc2)CC1 | 2 | -20 | -1.6% | . | -2 | 8 | -4
O=C(NCc1ccc(F)cc1)C1CCCN1S(=O)(=O)c1ccccc1C(F)(F)F (stereo not given) | -7 | -2.4 | -1.3% | . | -1 | 3 | 2
COc1ccccc1-c1cc(C(=O)N2CCCc3ccccc32)no1 | -14 | 1.1 | 1.6% | -6% | 3 | . | 0
Cc1cc(C)n2c(SCC(=O)N(CCC#N)c3ccc4c(c3)OCCO4)nnc2n1 | . | -2.0 | 0.2% | . | -21 | -7 | 5
Cc1ccc2c(c1)[C@H]1[C@H](CO2)[C@H](c2ccccc2)[C@]2(C)C(=O)N(Cc3ccc(Cl)cc3)CC(=O)N12 | -3 | -1.9 | 0.1% | . | -7 | -12 | -11
CCC(Oc1cc(Cl)ccc1Cl)C(=O)N1CCCN(C)CC1 (stereo not given) | 11 | -3.5 | -1.2% | 8% | -10 | 5 | 1
COc1ccc(C(=O)Nc2ccc3ccccc3n2)cc1OC | ? | 0.1 | 4.1% | 8% | -41 | . | 2
O=C(O)c1cc(S(=O)(=O)Nc2ccccc2Cc2ccccc2)ccc1Cl | ? | -0.5 | 2.0% | 30% | -5 | 0 | -2
Cc1ccccc1N1CCN(C(=O)NCc2cccc(Cl)c2)CC1 | -17 | -1.1 | -0.1% | -19% | -12 | -3 | 3
COc1ccc(NC(=O)CN(c2cccc(F)c2)S(C)(=O)=O)cc1OC | 19 | 0.6 | -3.1%[38.3 µM] | 27% | -9 | 6 | -2
CN(CC(=O)Nc1ccc(S(=O)(=O)N2CCCC2)cc1)Cc1c(F)cccc1Cl | -11 | 1.7 | -1.2% | 9% | 0 | -9 | -19
Cc1cccc(N2CCC(NCc3c(C(=O)N4CCCCC4)nc4c(C)cccn34)CC2)c1 | 5 | -0.8 | -0.9% | -6% | -9 | . | -3
Cn1nnnc1N=N/C(=N/Nc1ccccc1)c1ccccc1 | -24 | 7.8 | 1.1% | 2% | -2 | -24 | -27
O=C(O)c1ccc(SCc2ccccc2)nc1 | . | -2.4 | 0.2% | . | -1 | 9 | 9
Cc1ccc(N2CC(C(=O)Nc3nnc(SCCC4OCCO4)s3)CC2=O)cc1 (stereo not given) | 4 | 0.7 | -0.8% | 4% | 8 | -3 | -5
COc1ccc(N2CCN(CCCNC(=S)Nc3c(C)cccc3C)CC2)cc1 | 0 | -1.7 | -1.3% | 11% | -14 | -5 | -6
CCc1nnc(NC(=O)CSc2nnc(C3CCCCC3)n2-c2cccc(Cl)c2)s1 | 1 | 1.2 | -2.0% | 7% | -5 | -7 | -2
COc1ccc(OCC(=O)NCc2ccc(Cl)cc2)cc1 | -25 | -0.6 | -0.2% | 17% | -5 | 9 | -4
O=C(Nc1ccc(S(=O)(=O)Nc2nccs2)cc1)c1ccc(=O)[nH]c1 | -2 | -4.5 | -0.3% | -18% | -11 | -25 | -18
CCOC(=O)c1ccc(NC(=S)Nc2cccc(N)n2)cc1 | . | 7.6 | 3.1% | 8.9µM* | -9 | -11 | -9
